# GIV-Gai inh: inhibitors of GIV peptide binding to Galpha-i3, primary screen, biochemical, fluorescence polarization, FITC-GIV GBA peptide, rat Galphai3. Guanine nucleotide-binding protein G(i) subunit alpha-3 (Rattus norvegicus), P08753. 90 min; stronger effect = lower value; scaled: aluminum fluoride 0%, vehicle 100%. percent of control (FP), % (no concentration beside the values). actives 0.42% (n = 210,000). AID 1224905, 2016;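 active means replicate mean at 85% of control or lower, very high polarization wells dropped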;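 further: wells of about 15 µL received 100 nL stock; the first replicate is given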
# Target sequence (P08753 whole entry, looked up): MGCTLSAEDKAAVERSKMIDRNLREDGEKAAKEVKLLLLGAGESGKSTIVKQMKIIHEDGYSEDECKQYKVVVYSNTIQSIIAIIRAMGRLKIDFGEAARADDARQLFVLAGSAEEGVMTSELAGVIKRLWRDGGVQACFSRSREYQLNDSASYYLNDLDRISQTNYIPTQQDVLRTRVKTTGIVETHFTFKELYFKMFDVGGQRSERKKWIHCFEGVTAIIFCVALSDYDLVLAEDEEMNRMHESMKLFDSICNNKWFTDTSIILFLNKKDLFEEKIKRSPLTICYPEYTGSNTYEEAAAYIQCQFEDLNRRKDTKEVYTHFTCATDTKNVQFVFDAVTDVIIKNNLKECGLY
# Sa growth 42C: S. aureus growth inhibition at 42 and 30 °C, primary screen, LtaS inhibitor project, RN4220, two temperatures; AID 720641, 2013; OD600, 20 h, 42 °C; stronger effect = lower value; relative growth, % (concentration not given with the values); actives 0.53% (n = 170,000);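 active means growth at 42 °C up to 50% and 20 or more points under that at 30 °C, or under 10% at both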;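 further: 300 nL library stock went into each well; scaled to the means of positive and negative controls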
# HCMV UL50-53 inh: inhibitors of HCMV UL50-UL53 interaction, biochemical, HTRF; inhibition, % (concentration not given with the values); AID 1918969, 2023; actives 0.15% (n = 190,000); normalized percent inhibition;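 active means both replicates at 50% or more, plus weaker picks with an unusually low signal ratio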;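 further: stock transfer was 100 nL into about 20 µL; 0% = negative control wells and 100% = wells with untagged competitor protein; inactives centre near -12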
# Sa growth 42C second temp: second read-out of Sa growth 42C, no call of its own (marks repeat the call); relative growth, %; measured here: growth at 30 °C;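 optical density after 20 h as mean of two plates; 100% = untreated growth and lower means inhibition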
# An asterisk follows results filed as active; i = inactive; nt = no result given.
SMILES	GIV-Gai inh	Sa growth 42C	Sa growth 42C second temp	HCMV UL50-53 inh
CC1(C)CC(NC(=O)c2ccccc2Cl)CC(C)(C)N1	97	107	78	-11
CN(C)C(=O)COC(=O)Cn1cnc2ccccc21	nt	86	87	-13
CCn1c(=O)c2cc(C(=O)N(C)CC(OC)OC)sc2c2ccccc21	97	83	88	nt
CCOc1ccccc1CNC(=O)CCCn1nc(C)c2sc3ccccc3c2c1=O	108	124	88	-9
Cc1cccc(Oc2ccc3c(c2)Oc2ccccc2NC3=O)c1	113	94	92	10
COc1ccc(NC(=O)c2cccnc2Nc2cccc(F)c2)cc1	103	102	84	-26
O=C(CN1C(=O)CCc2cc(S(=O)(=O)N3CCCCC3)ccc21)N1CCOCC1	109	nt	nt	-4
S=c1nc[nH]c2c1ncn2CN1CCCCC1	nt	88	46	-46
O=C(Cn1c(=O)n(-c2ccc(F)cc2)c(=O)c2oc3ccccc3c21)NC1CCCCC1	100	89	79	-43
Cc1ccc(C(NC(=O)C(C)C)c2cc(Cl)c3cccnc3c2O)cc1 (configuration not stated)	101	84	84	-12
Cc1cc2c(cc(C(=O)N3CCC(C(=O)NCc4ccc5c(c4)OCO5)CC3)n2Cc2c(F)cccc2Cl)o1	95	90	82	-8
O=C(Oc1ccc2c(c1)OCC2=O)c1cccs1	108	101	89	6
Cc1[nH]c2ccccc2c1C(=O)CSc1nnc(C2CC2)n1C	nt	103	95	-13
CCN1CCN(Cc2nc3cc(NC(C)=O)ccc3n2C(C)C)CC1	112	nt	nt	-1
Cc1ccc(NC(=O)CSc2nc3ccc(NC(=O)c4cccs4)cc3s2)cc1	98	101	84	-34
O=C(CSc1nc2ccccc2[nH]1)Nc1cccc(C(F)(F)F)c1	nt	80	80	-23
COc1ccc(C(=O)Cc2ccc(F)cc2)c(OC)c1	105	101	105	10
O=C(CSc1nnc(CSc2nc3ccccc3s2)n1Cc1ccccc1)NC1CCS(=O)(=O)C1 (configuration not stated)	nt	98	93	-10
COc1cc(C)ccc1OCCSc1nc2ccc(NC(=O)c3ccc(F)cc3)cc2s1	97	101	83	-19
FC(F)(F)c1cc(-c2ccco2)nc(NCCc2ccccc2)n1	100	78	78	-26
CCCCC1CCC(C(=O)NCC(c2ccco2)N2CCCC2)CC1 (configuration not stated)	103	81	70	-14
COc1ccc(OC)c(N/C=C(\C#N)c2nc(-c3cc4cc([N+](=O)[O-])ccc4oc3=O)cs2)c1	103	nt	nt	-25
CC1=NCCNC(C)=C1Sc1ccccc1	99	80	90	4
COC(=O)c1ccc(CSc2nnc(SCC(=O)c3ccc(C)cc3C)s2)o1	nt	115	88	-17
CCN(CC)c1ccc(C2C(C(N)=O)=C(C)Nc3nc(SCc4ccccc4)nn32)cc1 (configuration not stated)	102	122	84	-7
CCOc1ccc(CNS(=O)(=O)c2ccc3c(c2)CC(C)N3C(C)=O)cc1OC (configuration not stated)	103	118	87	nt
Cc1ccccc1C(=O)N1CC(=O)Nc2ccc(Cl)cc2C1c1ccccc1 (configuration not stated)	100	71	83	-21
CCN(Cc1ccccc1)c1sc(S(=O)(=O)CC)nc1S(=O)(=O)c1ccc(C)cc1	101	92	80	nt
COc1ccccc1CNc1nc(-c2cc(C)n(C)c2C)cs1	nt	88	82	2
CCn1c(COC(=O)/C=C/c2nc3ccccc3s2)nc2cc(S(=O)(=O)N(C)C)ccc21	nt	87	93	-2
N#CC(C(=O)C1CC1)=C1SCCS1	104	95	80	-25
CSc1ccc2nnc(-c3ccc(F)cc3)n2n1	109	106	91	nt
Cc1ccc2c(c1)NC(c1ccc(N(C)C)cc1)O2 (configuration not stated)	139	72	52	-41
CC(=O)Nn1cnc2ccccc21	nt	106	78	-34
COc1ccc(NC(=O)CN2C(=O)CC(c3ccco3)Sc3ccccc32)cc1OC (configuration not stated)	107	103	74	-4
CC(=O)N1CCc2cc(Br)c(S(=O)(=O)CCC(=O)N3CCN(c4ccccn4)CC3)cc21	102	nt	nt	7
CCc1ccc(NC(=O)C2CCC(=O)N(c3ccc(OC)cc3)C2c2ccc(OC)cc2)cc1 (configuration not stated)	103	81	84	nt
Nc1c(C(=O)Nc2cccc(F)c2)nnn1-c1cccc(C(F)(F)F)c1	105	119	81	nt
COCC(C)NCc1c(F)cccc1F (configuration not stated)	105	96	87	-1
CCNc1nc(-c2cccc(C(F)(F)F)c2)cs1	nt	69	89	-20

# (list continues)
molecule,GIV-Gai inh,Sa growth 42C,Sa growth 42C second temp,HCMV UL50-53 inh
Cc1c(OCC(=O)NC2CCCC2)ccc2c1oc(=O)c1ccccc12,nt,98,80,-8
CC(Oc1cc(O)c2c(=O)cc(-c3ccccc3)oc2c1)C(=O)c1ccccc1 (configuration not stated),98,nt,nt,-16
O=C(Cc1ccc(S(=O)(=O)N2CCCC2)s1)Nc1ccc2c(c1)OCO2,nt,106,83,-35
COc1ccc(Cl)cc1NC(=O)Nc1c[nH]c(=O)[nH]c1=O,106,94,91,nt
COc1ccc(-n2c(SCC(=O)NCC3CCCO3)nc3c(c2=O)SCC3)cc1 (configuration not stated),98,nt,nt,-59
O=C(Cn1c(=O)n(-c2ccccc2)c(=O)c2sc3ccccc3c21)N1CCCC1,101,112,83,-43
CCOC(=O)c1c(C)[nH]c(C)c1S(=O)(=O)NCC(=O)Nc1cc(C)nc2ccccc12,105,nt,nt,-18
Brc1cccc(-c2cnn3c(-c4ccccc4)cc(-c4ccccc4)nc23)c1,107,90,81,-23
COCCCNC(=O)Cn1c(=O)n(Cc2ccc(C(=O)NCc3ccc(C)cc3)cc2)c(=O)c2ccccc21,101,112,85,-13
CCOC(=O)c1cc2c3c(c1)C1C=CCC1C(c1ccc(Cl)cc1)N3CC1CC=CC21 (configuration not stated),106,nt,nt,-9
Cc1cc(=O)[nH]c(SC(C)C(=O)NC2CCCCC2)n1 (configuration not stated),102,88,80,-13
CCN(C(=O)C1CCC(CNS(=O)(=O)c2cccc3nsnc23)CC1)c1cccc(C)c1 (configuration not stated),102,97,89,-37
Cc1cccc(NC(=O)Cn2c(=O)n3nc(CCn4nc(C)cc4C)nc3c3ccccc32)c1,101,104,85,-12
O=S(=O)(NCc1ccco1)c1ccc2c(c1)Cc1ccccc1-2,104,76,61,-57
Cn1c(=O)c2sccc2n2c(CCC(=O)NCCc3c[nH]c4ccccc34)nnc12,104,nt,nt,8
O=C(Cn1c(=O)n(-c2ccc(Cl)cc2)c(=O)c2c3c(sc21)CCC3)c1ccc(F)cc1,100,106,90,-24
CC(NC(=O)COn1nnc2ccccc21)C1CC2CCC1C2 (configuration not stated),nt,88,93,4
Cc1[nH]nc2c1C(c1ccccc1)C1=C(CC(C)(C)CC1=O)N2 (configuration not stated),i,101,89,-25
COC(=O)CN1C(=O)CCS(=O)(=O)c2ccccc21,105,nt,nt,-26
NC(=O)/C=C/C(=O)NCc1ccccc1,101,84,81,-2
CC(=O)c1ccc(N2CCN(c3ncnc4c3c(-c3ccccc3)cn4-c3ccc(C)c(Cl)c3)CC2)cc1,109,103,86,nt
Cc1ccc(C)c(OCC(O)Cn2c(C3CC(=O)N(C(C)(C)C)C3)nc3ccccc32)c1 (configuration not stated),98,nt,nt,-7
Cn1nc(-c2ccc3c(c2)OCCO3)c2ccccc2c1=O,nt,91,97,-6
NNc1nc2c(c(=O)[nH]1)C1(CCCCC1)Cc1ccccc1-2,94,124,107,-4
C=C(C)C(=O)Nc1ccc2c(c1)C(=O)NC2=O,103,106,84,nt
COCC(C)n1c(SC(C)C(=O)NC2(C#N)CCCCC2)nc2ccccc2c1=O (configuration not stated),nt,72,87,-21
C(#Cc1ccccc1)CN1CCCCC1,103,116,79,10
Cc1cc2c(cc1S(=O)(=O)N1CCCC(C(=O)Nc3cccc(Cl)c3)C1)OCC(=O)N2 (configuration not stated),102,nt,nt,-30
COc1ccc(N2CC(NC(=O)c3ccc(S(=O)(=O)N4CCCCC4)cc3)CC2=O)cc1 (configuration not stated),97,103,93,nt
COc1ccc(OC)c(C2C3=C(CC(c4ccc(OC)c(OC)c4)CC3=O)Nc3onc(C)c32)c1 (configuration not stated),105,nt,nt,-12
CN(CCc1noc(-c2ccccc2)n1)S(=O)(=O)c1cccc2nsnc12,97,nt,nt,-70
Cc1ccc(C)n1Cc1ccco1,nt,114,76,8
Cc1ccc(C(=O)N2N=C3c4ccccc4S(=O)(=O)N3C2N(C)C)cc1 (configuration not stated),nt,100,83,-2
COC(=O)C1=CNC=C(C(=O)OC)C1c1ccc(C(F)(F)F)cc1,100,104,77,-16
FC(F)Oc1ccc(Cl)cc1COc1ncnc2ccccc12,nt,102,93,-22
CC(C)NCc1ccc(-c2ccc(C(C)O)cc2)o1 (configuration not stated),111,nt,nt,-5
CCOC(=O)CN1C(=S)NC(C)(C)C=C1C,104,89,85,10
O/N=C/c1cccs1,103,nt,nt,-14
COc1cc(Nc2c(-c3ccc(C)cc3)c(=O)c2=O)cc(OC)c1,110,nt,nt,-13
O=C(Cc1cccc2ccccc12)Nc1nnc(-c2ccncc2)o1,106,40,18,-23
CCC(NC(N)=O)C(=O)O (configuration not stated),nt,94,89,-20
CCC(C(=O)Nc1cc(OC)cc(OC)c1)n1nc(-c2ccc(C)c(C)c2)ccc1=O (configuration not stated),105,104,74,-28
CCN1CCN(Cc2nc3cc(NC(=O)c4cc(OC)c(OC)c(OC)c4)ccc3n2CC)CC1,104,102,86,-25
CCOC(=O)c1sc(CS(=O)(=O)c2ccc(Cl)cc2)nc1C,103,110,115,6
CN(C(=O)CSc1nc2ccc(NC(=O)c3ccco3)cc2s1)c1ccccc1,97,97,56,-11
CC(C)(C)n1nc(C2CC2)cc1NC(=O)Nc1ccccc1,103,118,89,-24
NS(=O)(=O)c1ccc(CCNC2=CC(=O)CC(c3ccco3)C2)cc1 (configuration not stated),105,110,98,-4
Cc1sc2c(c1C)c(=O)n(CCc1ccccc1)c(=O)n2Cc1ccc(C(C)(C)C)cc1,100,99,88,-8
CCOc1ccccc1CNC(=O)CCn1ccc2cc(S(=O)(=O)N3CCC(C)CC3)ccc21,105,113,90,nt
O=c1c2sccc2n2c(SCc3ccccc3)nnc2n1Cc1ccccc1,101,nt,nt,-22
COC(=O)c1ccc(-n2c(C)cc(C(=O)CSc3ncnc4sc5c(c34)CCC5)c2C)cc1,104,92,85,nt
Cc1ccc(C)c(CNC(=O)c2sc3ncnc(N(C)C4CCCCC4)c3c2C)c1,100,113,95,nt
CCN(C(=O)C(Cc1ccccc1)NS(=O)(=O)c1cccc2nsnc12)c1ccccc1 (configuration not stated),103,104,91,-106

# Rewritten with values under each structure: part of the list above.
# Each structure is followed by: GIV-Gai inh | Sa growth 42C | Sa growth 42C second temp | HCMV UL50-53 inh
CCC(NC(N)=O)C(=O)O (configuration not stated)
 : nt | 94 | 89 | -20
CCC(C(=O)Nc1cc(OC)cc(OC)c1)n1nc(-c2ccc(C)c(C)c2)ccc1=O (configuration not stated)
 : 105 | 104 | 74 | -28
CCN1CCN(Cc2nc3cc(NC(=O)c4cc(OC)c(OC)c(OC)c4)ccc3n2CC)CC1
 : 104 | 102 | 86 | -25
CCOC(=O)c1sc(CS(=O)(=O)c2ccc(Cl)cc2)nc1C
 : 103 | 110 | 115 | 6
CN(C(=O)CSc1nc2ccc(NC(=O)c3ccco3)cc2s1)c1ccccc1
 : 97 | 97 | 56 | -11
CC(C)(C)n1nc(C2CC2)cc1NC(=O)Nc1ccccc1
 : 103 | 118 | 89 | -24
NS(=O)(=O)c1ccc(CCNC2=CC(=O)CC(c3ccco3)C2)cc1 (configuration not stated)
 : 105 | 110 | 98 | -4
Cc1sc2c(c1C)c(=O)n(CCc1ccccc1)c(=O)n2Cc1ccc(C(C)(C)C)cc1
 : 100 | 99 | 88 | -8
CCOc1ccccc1CNC(=O)CCn1ccc2cc(S(=O)(=O)N3CCC(C)CC3)ccc21
 : 105 | 113 | 90 | nt
O=c1c2sccc2n2c(SCc3ccccc3)nnc2n1Cc1ccccc1
 : 101 | nt | nt | -22
COC(=O)c1ccc(-n2c(C)cc(C(=O)CSc3ncnc4sc5c(c34)CCC5)c2C)cc1
 : 104 | 92 | 85 | nt
Cc1ccc(C)c(CNC(=O)c2sc3ncnc(N(C)C4CCCCC4)c3c2C)c1
 : 100 | 113 | 95 | nt
CCN(C(=O)C(Cc1ccccc1)NS(=O)(=O)c1cccc2nsnc12)c1ccccc1 (configuration not stated)
 : 103 | 104 | 91 | -106

# Bioassay records as filed in PubChem BioAssay.
